# HIV TAR-Tat – HIV-1 TAR-Tat binding disruption; z-score (concentration not given with the values); 100,000 tested, 0.6% active; HIV-1 TAR RNA, Tat peptide displacement FRET; hits give high values; AID 1259389;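 further: score is relative to mean and SD of negative controls; some compounds called inactive have numbers as strong as hits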
# CDC25B-CDK2 inh – human CDC25B-CDK2/CyclinA binding inhibition. P30305+P24941. HTRF CDC25B-CDK2/CyclinA binding, anti-His/anti-Flag; hits give high values. z-score (concentration not given with the values). 94,000 tested, 0.72% active;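 further: score is relative to mean and SD of negative controls; strong numbers were not always called active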
# Numbers without * were called inactive; . = not tested or not shown.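 How the source made its calls: active means z-score from 3 up in half or more of its runs; inactive means the rest.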 Not a hit list; 0.97% or so of the library scored in one or more.
# Start of the data: the first 2 compounds, to show the layout:
SMILES,HIV TAR-Tat,CDC25B-CDK2 inh
O=C(O)c1nccnc1C(=O)N1CCCN(C(=O)c2cccs2)CC1,.,-2.11
CN(C)S(=O)(=O)Oc1ccc(/C(N)=N/O)cc1,.,-1.41

# Results, previewed entries included:
SMILES,HIV TAR-Tat,CDC25B-CDK2 inh
O=C(O)c1nccnc1C(=O)N1CCCN(C(=O)c2cccs2)CC1,.,-2.11
CN(C)S(=O)(=O)Oc1ccc(/C(N)=N/O)cc1,.,-1.41
CC(C)Cc1nn2c(=O)cc(COC(=O)COc3ccccc3Cl)nc2s1,-0.64,.
N#CC1C2CC3CC(C2)C(OS(=O)(=O)c2ccc([N+](=O)[O-])cc2)C1C3 (stereo not drawn),.,-1
O=S(=O)(Cc1ccccc1)N1CCN(c2nc3ccccc3n3cccc23)CC1,1.7,-0.18
C=CCNc1sc(S(=O)(=O)CCC)nc1S(=O)(=O)c1ccc(C)cc1,1.59,-1.61
O=C(O)c1ccccc1C(=O)OCC(Cl)=C(Cl)Cl,.,9.88
Cc1cc(=O)n2nc(N3CCCC3C(=O)Nc3ccc(F)cc3F)sc2n1 (stereo not drawn),1.32,-0.19
C=CCOc1ccc2c(=O)c(Oc3ccccc3Cl)coc2c1,-0.54,0.23
CCOC(=O)N1CCN(c2c(N3CCN(c4ccc(F)cc4)CC3)c(=O)c2=O)CC1,0.81,-1.08
NC(=O)c1c(NC(=O)c2ccc3c(c2)OCCO3)sc2c1CCCCC2,-0.33,.
N#C/C(=N\Nc1ccccc1Oc1ccc(Cl)cc1Cl)C(=O)N1CCCC1,.,-1.65
Cc1cc(NC(=O)CSc2cn(CCNC(=O)c3ccccc3F)c3ccccc23)no1,.,-0.42
COc1ccc(CCN2C(=O)c3[nH]nc(-c4ccccc4O)c3C2c2ccc(OC)c(OC)c2)cc1 (stereo not drawn),1.85,-1.81
Cn1nc(C(=O)NCc2ccco2)c2c1-c1ccsc1CC2,-0.15,.
Nc1nnc(SCC(=O)N2CCCCC2)s1,.,1.01
O=C(Cn1c(=O)n(CC(=O)NC2CCCC2)c(=O)c2ccccc21)Nc1ccc(Br)cc1,0.31,-2.47
O=C(c1cccnc1Cl)N1CCOCC1,.,-0.12
CCN(CC)C(=O)C1CCCN(c2ncnc3c2c(-c2ccccc2)cn3-c2ccc(F)cc2)C1 (stereo not drawn),.,-2.89
COc1cccc(CSc2nc3ncccc3o2)c1,-0.43,.
O=C(CSc1nc(=O)n(CCN2CCOCC2)c2c1CCC2)Nc1nc2ccccc2s1,1.69,.
COc1cc(Nc2ncc3c(n2)CCN(Cc2ccc(F)c(F)c2)C3)cc(OC)c1,0.88,.
COc1ccc(/C=C/c2nc(C#N)c(NCCc3ccccc3)o2)cc1OC,-0.07,-0.85
Cc1ccn2c(=O)c(NC(=O)c3ccccc3)cnc2c1,-0.51,-0.34
Cc1ccc(C)c(S(=O)(=O)Nc2cccc(N3CCCS3(=O)=O)c2)c1,0.24,.
CCc1ccc(-c2cc(C)no2)cc1S(=O)(=O)N1CCN(C2CCCCC2)CC1,0.09,.
COc1ccc(C2=C(C)C(Nc3c(C)cc(C)cc3C)=NS2(=O)=O)cc1,0.58,-1.41
c1ccc2c(-c3nnc(CN4CCOCC4)o3)cccc2c1,.,-0.23
Cc1oc(-c2ccccc2Cl)cc1-c1nn2c(-c3ccco3)nnc2s1,-0.84,-0.91
O=C(/C=C/c1ccccc1Cl)Nc1ncc(Cc2cccc(C(F)(F)F)c2)s1,.,-1.78
CCc1nnc(SCC(=O)Nc2ccc(F)cc2F)c2cc3sccc3n12,1.43,.
c1cc2c(ccc3nonc32)nn1,.,-0.4
O=C(Nc1ccccc1)Nc1ccccc1N1CCOCC1,.,-1.83
CCNc1nc(NCc2ccc(OC)cc2)c2cnn(C)c2n1,0.61,.
O=C(CC1(O)C(=O)Nc2ccccc21)c1ccccc1O (stereo not drawn),-0.1,-0.22
O=c1c(N2CCN(Cc3ccccc3)CC2)csc2ccccc12,0.62,.
CC(Nc1n[nH]c(=O)[nH]c1=O)C(=O)O (stereo not drawn),1.78,-1.45
Cc1nc2nc(Cc3ccccc3)[nH]n2c(=O)c1C,2.84,-1.33
O=C(Cn1ncc2ccccc21)Nc1ccc(Cl)cn1,0.17,0.03
O=C(CCSc1cc(Cl)ccc1Cl)N1CCc2cc([N+](=O)[O-])ccc21,.,-0.21

# Record cards, from the list above. Values in the order: HIV TAR-Tat | CDC25B-CDK2 inh
# Profile of O=C(Cn1ncc2ccccc21)Nc1ccc(Cl)cn1 → 0.17 | 0.03
# Profile of Cc1ccc(C)c(S(=O)(=O)Nc2cccc(N3CCCS3(=O)=O)c2)c1 → 0.24 | .
# Profile of O=C(Nc1ccccc1)Nc1ccccc1N1CCOCC1 → . | -1.83
# Profile of CCc1nnc(SCC(=O)Nc2ccc(F)cc2F)c2cc3sccc3n12 → 1.43 | .
# Profile of Cc1ccn2c(=O)c(NC(=O)c3ccccc3)cnc2c1 → -0.51 | -0.34

# (further entries)
SMILES,HIV TAR-Tat,CDC25B-CDK2 inh
COc1ccc(-c2noc(CSCC(=O)O)n2)cc1OC,0.21,1.8
O=C(c1ccc(S(=O)(=O)N2CCOCC2)o1)N1CCOCC1,.,-2.94
CCCCCc1ccc(/C=C/C(=O)Nc2cc(Cl)ccc2C(=O)O)cc1,.,-0.64
O=C(NCCCN1CCc2ccccc2C1)c1cnc2sc3c(n2c1=O)CCCC3,1.27,.
NC(=O)C1CCN(C(=O)c2ccc3c(=O)n(Cc4ccco4)c(=S)[nH]c3c2)CC1,.,3.7
Cc1ccc2c(c1)-c1c(c(C(=O)N3CCCC3)nn1C)CS2,0.03,.
Cc1cc(N2CCN(Cc3ccccc3)CC2)n2ncc(-c3ccc(F)cc3)c2n1,-0.2,-0.9
Cc1cc(N2CCOCC2)n2nc(-c3ccco3)nc2n1,0.18,.
FC(F)(F)c1nc(NCc2cccs2)nc2c1CCCCC2,-0.42,0.96
COc1ccc(C(=O)NC2CCN(Cc3c(F)cccc3Cl)CC2)cc1OC,.,-1.7
Cn1c(=O)c2c(-c3ccccc3Br)n(-c3ccc4c(c3)nc(CO)n4C)cc2n(C)c1=O,0.34,2.35
O=C(c1cc(-c2cccs2)on1)N(Cc1ccc(Cl)cc1)C1CCS(=O)(=O)C1 (stereo not drawn),1.21,0.9
O=C(Cc1c[nH]c2ccccc12)N(Cc1cccs1)C1(C(=O)NC2CCCC2)CCCCC1,.,-0.69
CCN(CC)CCn1c(NCc2ccc(Br)cc2)nc2ccccc21,-0.05,-1.25
CC1C2Oc3ccccc3C1Oc1ccccc12 (stereo not drawn),.,-0.98
O=C(NCC1CCN(C2CCCC2)C1)Nc1ccc2c(c1)OCO2 (stereo not drawn),1.49,-2.12
COc1cccc(NC(=O)N2CCC3(CC2)CC(=O)c2ccccc2O3)c1,0.55,.
COC(=O)C1=CN(Cc2ccc(F)cc2)C=C(C(=O)OC)C1c1cccs1,.,-1.86
COc1cccc(C2c3c(-c4ccc(F)cc4)n[nH]c(=O)c3Nc3nnnn32)c1 (stereo not drawn),1.67,-0.96
Cc1nc2ccc(S(=O)(=O)NCC(=O)NC3CCC(C)CC3)cc2s1 (stereo not drawn),0.41,-1.5
Cn1c(=O)[nH]c(=O)c2[nH]c(NCCCN3CCOCC3)nc21,0.79,-2.05
COCCn1c(C2CC(=O)N(c3ccc(Br)cc3)C2)nc2ccccc21 (stereo not drawn),-0.67,-1.23
O=C(Cn1ncc2ccccc21)Nc1ccccc1Br,1.48,-3.29
Cc1cc(C)c(C#N)c(SCC(=O)c2ccc(O)c(O)c2)n1,0.13,-0.23
Cc1cccnc1NC(=O)Nc1ccc2c(c1)N(C)C(=O)CS2,-1.46,5.7
CCC(=O)N1CCc2cc(Br)cc(S(=O)(=O)N(CC)CC)c21,.,-0.03
O=C(O)c1ccc(NS(=O)(=O)c2ccc3c4c(cccc24)C(=O)N3)cc1,0.52,-1.31
Cc1cc2c(cc1S(=O)(=O)N1CCC(CCN3CCOCC3)CC1)OCC(=O)N2,1.69,.
COc1ccc(-c2nc(N)n(C(=O)C3CC3)n2)cc1,-0.79,-1.15
CCc1c(C)nc2nncn2c1Nc1ccc(Cl)cc1,2.74,-0.54
O=C(Cc1ccc(NC(=O)N2CCSc3ncccc32)cc1)N1CCOCC1,-0.09,.
COC(=O)C1=C(C)Nc2[nH]ncc2C1c1ccccc1 (stereo not drawn),.,0.66
COc1ccc(C2CC(=O)Nc3c2c(C)nn3-c2nncc(-c3ccc(C)cc3)n2)cc1OC(C)C (stereo not drawn),1.9,.
COc1ccc(Nc2nc3ccccc3n3cnnc23)c(OC)c1,.,-3.19
CCc1nc(-c2csc(S(=O)(=O)N3CCC(C(=O)NC4CC4)CC3)c2)no1,0.9,.
C/C=C(/C)C(=O)O[C@@H]1[C@H](OC(C)=O)[C@@]2(CO)C(CC1(C)C)C1=CCC3[C@@]4(C)CC[C@H](O[C@@H]5O[C@H](C(=O)O)[C@@H](O[C@@H]6O[C@H](CO)[C@@H](O)[C@H](O)[C@H]6O)[C@H](O)[C@H]5O[C@@H]5O[C@H](CO)[C@@H](O)[C@H](O)[C@H]5O)[C@](C)(CO)C4CC[C@@]3(C)[C@]1(C)C[C@H]2O (stereo partly drawn),-2.5,.
O=C(CCc1nc2sc3c(c2c(=O)[nH]1)CCCCC3)N1CCc2ccccc2C1,1.07,.
CN(C)c1ccc(C(=O)NCCCCCC(=O)NO)cc1,10.2*,.
O=C(NCCN1CCCCC1)Nc1cnc2ccccn2c1=O,0.22,-1.68
COCC(=O)Nc1nnc2n1CCS2,1.02,.
Cc1ccn2c(=O)c(Cc3nnc(SCC(=O)NCC4CCCO4)n3C)c(C)nc2c1 (stereo not drawn),0.51,0.42
O=C(O)C1C2CC=CC2c2cc(Br)cc3c2N1CC1CC=CC31 (stereo not drawn),20.1*,4.91*
O=C(O)CSc1c2c(nc3cc(C(=O)NCC4CCCO4)ccc13)CCC2 (stereo not drawn),.,-2.33
Cc1sc2c(c1C)CSC(C(=O)N(C)Cc1ccccc1)=C2,-0.92,.
COc1cc(CO)c(CC(=O)N/N=C/C=C/c2ccccc2)cc1OC,.,-0.2
CC(C)OCCCNC(=O)CN1C(=O)CSc2ncccc21,-1.03,-0.58
CCCC(=O)Nc1ccc2c(c1)nc(Cn1ccnc1C)n2CCC,-0.19,-1.24
Nc1nonc1C(=O)NCCNCc1ccncc1,0.57,-0.57
O=C1[C@H](CCC(O)c2ccc(F)cc2)[C@@H](c2ccc(O)cc2)N1c1ccc(F)cc1 (stereo partly drawn),-0.36,.
CC(C)n1c(CCCC(=O)O)nc2cccnc21,-7.8,.
Cc1nn2c3c(cnc2c1-c1ccccc1)C(=O)CC(c1ccc(F)cc1)C3 (stereo not drawn),0.12,-2.55
Cc1cc2c3c([nH]c2cc1S(=O)(=O)N1CCc2ccccc2C1)CCCC3=O,1.94,.
O=C(Cc1c(C(=O)O)[nH]c2ccc(Cl)cc12)Nc1ccc(F)cc1,.,-0.81
CC(C)N1CSC(=S)N(Cc2ccco2)C1,.,-1.84
CN(CC(=O)NCCC1=CCCCC1)S(=O)(=O)c1ccc2c(c1)c(=O)n(C)c(=O)n2C,.,-1.81
Cc1cc2c(cc3c(SCC(=O)Nc4ccc(F)c(Cl)c4)nnc(C)n32)o1,2.94,.
COc1ccc2c(c1)OC/C(=C/c1ccc(O)c(O)c1)C2=O,1.3,.
CCCNC(=O)N1CC(CC)Oc2ccccc21 (stereo not drawn),1.79,.
COc1ccc(-c2noc(NCCc3ccc(Cl)cc3)n2)cc1OC,-1.11,.
CC(Cc1ccccc1)Nc1nc2c(S(=O)(=O)c3ccccc3)nnn2c2ccsc12 (stereo not drawn),-0.72,.

# 5 compounds already listed, arranged by heavy-atom count, rising:
SMILES,HIV TAR-Tat,CDC25B-CDK2 inh
Nc1nnc(SCC(=O)N2CCCCC2)s1,.,1.01
O=C(c1cc(-c2cccs2)on1)N(Cc1ccc(Cl)cc1)C1CCS(=O)(=O)C1 (stereo not drawn),1.21,0.9
O=C(NCCCN1CCc2ccccc2C1)c1cnc2sc3c(n2c1=O)CCCC3,1.27,.
Cc1ccn2c(=O)c(Cc3nnc(SCC(=O)NCC4CCCO4)n3C)c(C)nc2c1 (stereo not drawn),0.51,0.42
O=C(Cc1c[nH]c2ccccc12)N(Cc1cccs1)C1(C(=O)NC2CCCC2)CCCCC1,.,-0.69

# New compounds follow:
SMILES,HIV TAR-Tat,CDC25B-CDK2 inh
CCCN1CCN(CCCNC(=O)C2CCCN2c2nnc(N3CCCC3=O)s2)CC1 (stereo not drawn),2.43,-1.53
CCOc1ccc2nc(Nc3nc(C)cc(C(F)(F)F)n3)nc(C)c2c1,2.23,1.06
COc1ccc(Oc2c(C(F)(F)F)oc3cc(OC(=O)C4CCCO4)ccc3c2=O)cc1 (stereo not drawn),0.71,-2.36
Cc1ccc(CCNc2ncnc3onc(-c4ccc(Cl)cc4)c23)cc1,-0.99,-1.36
Cc1ccc(Nc2ncnc3onc(-c4ccc(F)cc4)c23)cc1C,-1.04,.
Cc1ccc(C(C)C)c(O)c1C(=O)O,1.71,.
Cc1cc2c(cc1S(=O)(=O)N1CCc3ccccc31)n(C)c(=O)c(=O)n2C,1.98,.
N/C(CCS(=O)(=O)c1ccc(Cl)cc1)=N\OC(=O)c1ccccc1C(F)(F)F,.,0.02
C=CCn1c(=O)c(=O)n(CC(=O)N2CCN(C(=O)c3ccco3)CC2)c2ccccc21,0.27,.
O=[N+]([O-])c1c(Sc2ccccn2)sc(Sc2ccccn2)c1[N+](=O)[O-],.,-2.24
Cc1ccc(-n2ncc3c(N(CCO)CCO)ncnc32)cc1C,1.44,.
Cc1cc(C)c2c(=O)[nH]c(SCc3ccccc3C)nc2n1,-0.04,-1.72
O=c1ccc2cc(S(=O)(=O)N3CCN(c4cccc(Cl)c4)CC3)ccc2[nH]1,-0.54,.
CC1CCC(NS(=O)(=O)c2ccc3[nH]c(=O)ccc3c2)CC1 (stereo not drawn),32*,.
COc1ccc(Nc2c(-c3ccsc3)nc3nc(C)cc(C)n23)cc1,-1.04,0.75
Cc1cc(NS(=O)(=O)c2ccc(NC(=O)c3cccs3)cc2)no1,.,-1.06
